Compound activity from PubChem BioAssay.
Mtb growth = Confirmatory growth inhibition assay against Mycobacterium tuberculosis H37Rv, potency (AID 1949); most inactive calls were filed without a number and no value below 0 was filed; inhibition, % at 10 µg/mL; hits with a dose series show IC50 in µg/mL; 100,000 tested, 1.6% active;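 active = confirmed in a dose series; inconclusive = about 50% or more but not retested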;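 note: bacteria grown 7 days with compound before Alamar blue readout; 0% = untreated bacteria and 100% = reference antibiotic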
* marks the source's active call; other numbers are inactive results; i = inactive; ? = inconclusive. The list is partial, so the mix of outcomes need not match the whole.

SMILES | Mtb growth
NC(N)=NC(N)=Nc1ccc(Cl)c(Cl)c1 | i
COc1cc(/C=C2\C(=O)NC(=O)N(Cc3ccccc3)C2=O)ccc1OC(=O)c1cccs1 | i
Cc1cccc(-n2c(=S)[nH]c3ccc(I)cc3c2=O)c1 | i
O=C(Nc1cccc(NC(=O)c2ccc(Br)cc2)c1)c1ccccc1 | i
Cc1ccccc1-c1nnc(SCc2ccccc2)o1 | 2%
O=C1CCCN1CCCNC(=S)Nc1ccc(Br)cc1Cl | 3%
Cn1ccnc1SCC(=O)N1c2ccccc2Sc2ccccc21 | 3%
O=C(CSc1ccc(Cl)cc1)Nc1ccc2c(c1)C(=O)NC2=O | i
CCC(=O)N1CCN(c2ccccc2F)CC1 | i
COc1ccc(OC(=O)c2cccc(S(=O)(=O)N3CCCC3)c2)cc1 | i
COc1ccc(C(=O)CSc2nc(SC)ns2)cc1OC | 1%
CCc1cccc(CC)c1NC(=O)C12CC3CC(CC(C3)C1)C2 | i
COc1ccc(-c2noc(CNC(=O)c3cccs3)n2)cc1 | i
CNC(=S)N1N=C(c2ccc(C)cc2)CC1c1ccc(Br)cc1 (stereo not drawn) | 23%
Cc1ccc(CNC(=O)Nc2c(C)n(-c3ccccc3)c(=O)n2C)cc1 | 1%
Cn1c(CCCOc2ccc(Cl)cc2Cl)nnc1SCC(=O)NCCc1ccccc1 | i
Cc1ccc2nc(-c3ccccn3)cc(C(=O)NCc3ccccn3)c2c1 | i
Cn1c(SCC(=O)c2ccc(O)c(O)c2)nnc1-c1ccccc1 | i
Cn1c(CNC(=O)c2ccc(Cl)cc2Cl)nnc1SCC(=O)c1ccc(Br)cc1 | i
Cc1c(NC(=O)c2oc3ccccc3c2C)cccc1[N+](=O)[O-] | i
CCOC(=O)c1oc2cc(OC(C)=O)ccc2c(=O)c1Oc1ccc(F)cc1 | i
CC(C)(Oc1ccc(Cl)cc1)C(=O)Nc1cccnc1 | i
O=C(Nc1ccc2c(c1)OCO2)Nc1ccccc1Cc1ccccc1 | 4%
CCOC(=O)c1[nH]c(C)c(/C(O)=C2\C(=O)C(=O)N(CCN(CC)CC)C2c2ccccc2F)c1C (stereo not drawn) | i
OCCNc1nc(Nc2ccc(Cl)cc2)nc(N2CCCCC2)n1 | 4%
Cc1cc(C(F)F)n2ncc(C(=O)N3CCN(c4ccccc4)CC3)c2n1 | i
COc1ccccc1OCC(=O)Nc1cc(Cl)ccc1Oc1ccccc1 | 0%
O=S(=O)(Nc1ccc(F)cc1)c1cccc2ccccc12 | i
Cc1ccccc1Oc1nc2c(c(=O)n(C)c(=O)n2C)n1Cc1ccccc1 | 11%
CCOC(=O)c1ccc(NC(=O)N2CCN(CCc3ccccc3)CC2)cc1 | 22%
CCN(CC)C(=O)COc1cc2oc(=O)c3c(c2cc1Cl)CCCC3 | i
COc1ccc(NC(=O)CC(c2ccccc2)c2ccccc2O)cc1 (stereo not drawn) | i
Cc1ccc(-c2nc3ccccc3s2)cc1NC(=S)NC(=O)C(C)(C)C | i
CCc1ccc(S(=O)(=O)ON2C(=O)c3ccccc3C2=O)cc1 | i
Cc1cc2occ(CC(N)=O)c2c(C)c1Cl | i
NC(=O)CSCc1ccc(Br)cc1 | i
CCOc1ccc(N(CC(=O)Nc2cccc(F)c2)S(=O)(=O)c2ccc(C)cc2)cc1 | i
COc1ccc(OC)c(N(CC(=O)Nc2cccc(Br)c2)S(C)(=O)=O)c1 | i
c1ccc(OCCn2c(-c3ccccc3)nc3ccccc32)cc1 | 11%
Cc1ccc(OCCCN2CCNCC2)c([N+](=O)[O-])c1 | i
COc1ccc(-c2nnc(SCC(=O)Nc3cc(F)ccc3C)o2)cc1 | 35%
CCOC(=O)c1ccc(OCCOc2ccc(Br)cc2)cc1 | 24%
CCOC(=O)C1=C(N)Oc2ccc3ccccc3c2C1c1cccnc1 (stereo not drawn) | i
O=C(C1CCN(S(=O)(=O)c2ccccc2)CC1)N1CCCCCC1 | i
CCOc1ccc(NS(=O)(=O)c2cc([N+](=O)[O-])ccc2C)cc1 | i
O=C(CCc1ccccc1)Nc1ccc2oc(-c3ccccc3Cl)nc2c1 | i
Cc1cc(-c2ccccc2)nc(SCc2ccccc2)c1C#N | i
O=C(CC1(O)C(=O)N(CCc2ccccc2)c2ccc(Cl)cc21)c1ccccn1 (stereo not drawn) | 5.1µg/mL*
c1ccc(-c2n[nH]c(-c3ccncc3)c2-c2nc3ccccc3[nH]2)cc1 | i
COc1ccc(C)cc1NC(=S)N1CCN(c2ccc([N+](=O)[O-])cc2)CC1 | i
COc1ccc(NC(=O)CN2C(=O)c3cccc4cccc2c34)cc1OC | 0%
CCOC(=O)c1c(-c2ccc(Cl)cc2)csc1NC(=O)C(C)N1C(=O)c2ccccc2C1=O (stereo not drawn) | i
N/C(CC(=O)Nc1ccc(F)cc1)=N\O | i
COc1ccc(C(=O)NC(=S)Nc2ccc3oc(=O)ccc3c2)cc1Cl | i
C=C1C2(C(=O)NCc3cccnc3)CCC(C2)C1(C)C (stereo not drawn) | i
CCCCc1ccc(NC(=O)CSCc2ccc(OC)cc2)cc1 | 13µg/mL*
O=C(c1cccs1)N1CCN(C2CC3CCC2C3)CC1 (stereo not drawn) | i
Cc1ccc(N2C(=O)C3C4c5ccccc5C(CO)(c5ccccc54)C3C2=O)cc1[N+](=O)[O-] (stereo not drawn) | ?
CC(=O)Nc1cccc(OCC(=O)N(C)c2ccccc2)c1 | i
Cc1ccc(C(C)C)c(OCc2nnc(SCC(=O)Nc3ncc(C)s3)n2C)c1 | i
(list continues)
SMILES | Mtb growth
CN(CC(=O)Nc1ccc(C(N)=O)cc1)S(=O)(=O)c1ccc(F)cc1 | i
O=C(CSc1nnc(COc2ccccc2)n1-c1ccccc1)Nc1ccccc1C(F)(F)F | i
Fc1ccc(C2C=C(c3ccc(Cl)cc3)Nc3nnnn32)cc1 (stereo not drawn) | 8%
N#Cc1c(C(F)(F)F)cc(-c2ccc(Br)cc2)nc1SCCC(=O)O | i
O=c1c2c3c(sc2[nH]c(=S)n1CCc1ccccc1)CCCC3 | i
CCOc1ccc(-c2noc(-c3ccc(F)cc3)n2)cc1OC | i
COc1ccc(Cn2c(=S)[nH]c3cc(C(=O)NCc4ccc(F)cc4)ccc3c2=O)cc1 | i
CC(C)OC(=O)C(C(=O)C(F)(F)F)c1cc(NS(=O)(=O)c2cc(Cl)ccc2Cl)ccc1O (stereo not drawn) | 1%
CCOC(=O)c1c(NC(=O)c2cc(Br)ccc2Cl)sc(C(=O)OC)c1C | i
C=CCn1c(SCc2cc(C(C)=O)ccc2OC)nnc1-c1cccc(Br)c1 | i
CNC(=S)NNC(=O)COc1ccccc1C | i
CCOC(=O)c1c(NC(=O)c2cc(S(=O)(=O)N3CCOCC3)ccc2OC)sc2c1CCC2 | i
Cc1ccc(S(=O)(=O)N2CCCC2C(=O)NCCC23CC4CC(CC(C4)C2)C3)cc1 (stereo not drawn) | i
CCOc1ccc(NC(=O)c2cnn3c(C(F)F)cc(-c4ccc(C)cc4)nc23)cc1 | i
NS(=O)(=O)c1ccc(NC(=O)C2COc3ccccc3O2)cc1 (stereo not drawn) | i
Clc1cccc(C2C=C(c3cccnc3)Nc3ncnn32)c1 (stereo not drawn) | i
CCOc1ccc(N(CC(=O)N2CCN(C)CC2)S(C)(=O)=O)cc1 | i
O=c1cc(-c2ccco2)oc2ccc(Cl)cc12 | 2%
COC(=O)CN(c1cc(Cl)cc(Cl)c1)S(=O)(=O)c1ccccc1 | i
Cn1c(SCC(=O)Nc2ccccc2C(F)(F)F)nnc1-c1ccco1 | 3%
Cc1ccc(-n2c(C)nnc2SCC(=O)Nc2ccc(Br)cc2F)cc1 | i
CCOC(=O)c1c(NC(=O)CCOc2ccccc2)sc(C(C)=O)c1C | i
O=C(O)c1ccccc1SC1CC(=O)N(c2ccc(O)cc2)C1=O (stereo not drawn) | i
CC(=O)Nc1ccc(S(=O)(=O)N(C)CC(=O)O)cc1 | i
Nn1c(SCc2cccc(Br)c2)nnc1-c1ccccc1 | i
Cc1ccc(C)c(-n2nnnc2SCC(=O)Nc2c(C)n(C)n(-c3ccccc3)c2=O)c1 | i
CCOc1ccc(Nc2nc3c(c(=O)[nH]2)CCC3)cc1 | i
O=c1cc(-c2ccccc2)[nH]n1-c1nc2ccccc2[nH]1 | i
CCN(CC)c1ccc(C(=S)N2CCN(CCO)CC2)cc1 | 0%
O=C(Nc1ccccc1C(=O)NC(Cc1ccccc1)C(=O)N1CCOCC1)c1ccco1 (stereo not drawn) | i
O=C1CCCN1C(=O)c1cncc(Br)c1 | i
CCOc1ccc(-c2n[nH]c(=S)n2CC)cc1 | i
CC(C(=O)Nc1ccc(N2CCN(S(C)(=O)=O)CC2)cc1)(c1ccccc1)c1ccccc1 | i
CC12CCC(C)(c3nc4ccccc4nc31)C2(C)C | i
COc1ccccc1CC(=O)Nc1ccc2c(c1)OCO2 | i
CCN(CC)C(CNS(=O)(=O)c1ccc(Cl)cc1)c1ccccc1 (stereo not drawn) | 3%
CCC(C)(C)c1ccc(OCCCNC)c(Cl)c1 | i
O=C1CC(c2cccs2)Sc2nc(-c3ccc(Cl)cc3)nn21 (stereo not drawn) | i
Cc1c(OCc2ccccc2)ccc2c1oc(=O)c1ccccc12 | i
COC(=O)c1c(NC(=O)C2CC(=O)NN2Cc2ccccc2)sc(C)c1C (stereo not drawn) | 4%
O=C(NC(=S)Nc1ccc(N2CCOCC2)c(Cl)c1)c1ccc(-c2ccccc2F)o1 | 8%
O=C(CSc1nnnn1-c1ccccc1)N(C1CCCCC1)C1CCCCC1 | i
CCCCNS(=O)(=O)c1ccc(NC(=O)c2cc(OC)cc(OC)c2)cc1 | 1%
CCC(Sc1ncnc2sc3c(c12)CCCC3)C(=O)OCc1ccccc1 (stereo not drawn) | 6%
Cc1ccc(NC(=S)NC(=O)c2ccc(Br)o2)c(C)c1 | 1%
COc1cc(CO)cc(Br)c1OCc1cccc(Cl)c1 | 25%
C=CCc1cc(OC)ccc1OCCN1CC(C)OC(C)C1 (stereo not drawn) | i
CNCc1ccc(OCC(=O)Nc2ccc(OC)cc2)c(OC)c1 | i
CCOC(=O)c1sc(NC(=S)NN2CCOCC2)c(C(=O)OCC)c1C | i
CC(C)(C)CC(C)(C)NC(=O)c1ccc(Cl)cc1[N+](=O)[O-] | i
COC(=O)c1ccc(COC(=O)c2ccc(CS(=O)(=O)Cc3ccccc3)cc2)cc1 | 7%
COC(=O)C1=C(c2ccccc2)NC(=S)NC1c1ccc(OC)c(OC)c1 (stereo not drawn) | i
Cc1cc(C)c(OCCN(C)Cc2ccccc2)c(Cl)c1 | 4%
Cc1ccnc(NC(=O)Cc2ccc(F)cc2)c1 | 3%
O=C(Nc1ccc(CN2CCOCC2)cc1)c1ccc(OCc2ccccc2)cc1 | i
Cc1ccccc1N(CC(=O)NCCSC1CCCCC1)S(=O)(=O)c1ccccc1 | i
Cc1cc(=O)oc2cc(OC/C=C/c3ccccc3)ccc12 | i
COc1cc(S(=O)(=O)N2CCN(c3ccc(Cl)c(Cl)c3)CC2)c(OC)cc1Cl | i
COc1ccc(Cl)cc1S(=O)(=O)N(C)C1CCCCC1 | i
CC(=O)C1C(=O)NC23CCCCC2C1c1ccccc1O3 (stereo not drawn) | 1%
(more compounds)
SMILES | Mtb growth
O=C(NC12CC3CC(CC(C3)C1)C2)N1CCN(C(=O)c2ccco2)CC1 | i
CCOc1ccc(NC(=O)CSc2nnc(C(C)NC(=O)c3cccc(C)c3)n2C)cc1 (stereo not drawn) | i
COc1ccc(N2CCN(C(=O)c3cccc(Br)c3)CC2)c([N+](=O)[O-])c1 | i
Cc1ccc(C(=O)N2CCCC2)cc1I | i
O=C(CCc1ccccc1)Nc1ccc(N2CCN(C(=O)c3ccccc3)CC2)c(Cl)c1 | i
O=C(CCC1CCCC1)NC(c1ccccc1)c1ccccc1 | i
CCn1c(SCC(=O)c2ccc(Cl)cc2)nnc1-c1ccc(N)cc1 | i
O=C(O)Cn1nnc(-c2ccc(OCc3cccc(C(F)(F)F)c3)cc2)n1 | 11%
CCCN1C(=O)C(=O)c2cc(Cl)ccc21 | i
O=C(Nc1ccc(N2CCN(C(=O)c3ccco3)CC2)cc1)c1sc2ccccc2c1Cl | i
COc1cc(CNc2ccc3c(c2)OCCO3)ccc1OCC(N)=O | i

Among those listed so far, 21 contain fluorine.
SMILES | Mtb growth
CCC(=O)N1CCN(c2ccccc2F)CC1 | i
CCOC(=O)c1oc2cc(OC(C)=O)ccc2c(=O)c1Oc1ccc(F)cc1 | i
CCOC(=O)c1[nH]c(C)c(/C(O)=C2\C(=O)C(=O)N(CCN(CC)CC)C2c2ccccc2F)c1C (stereo not drawn) | i
Cc1cc(C(F)F)n2ncc(C(=O)N3CCN(c4ccccc4)CC3)c2n1 | i
O=S(=O)(Nc1ccc(F)cc1)c1cccc2ccccc12 | i
CCOc1ccc(N(CC(=O)Nc2cccc(F)c2)S(=O)(=O)c2ccc(C)cc2)cc1 | i
COc1ccc(-c2nnc(SCC(=O)Nc3cc(F)ccc3C)o2)cc1 | 35%
N/C(CC(=O)Nc1ccc(F)cc1)=N\O | i
CN(CC(=O)Nc1ccc(C(N)=O)cc1)S(=O)(=O)c1ccc(F)cc1 | i
O=C(CSc1nnc(COc2ccccc2)n1-c1ccccc1)Nc1ccccc1C(F)(F)F | i
Fc1ccc(C2C=C(c3ccc(Cl)cc3)Nc3nnnn32)cc1 (stereo not drawn) | 8%
N#Cc1c(C(F)(F)F)cc(-c2ccc(Br)cc2)nc1SCCC(=O)O | i
CCOc1ccc(-c2noc(-c3ccc(F)cc3)n2)cc1OC | i
COc1ccc(Cn2c(=S)[nH]c3cc(C(=O)NCc4ccc(F)cc4)ccc3c2=O)cc1 | i
CC(C)OC(=O)C(C(=O)C(F)(F)F)c1cc(NS(=O)(=O)c2cc(Cl)ccc2Cl)ccc1O (stereo not drawn) | 1%
CCOc1ccc(NC(=O)c2cnn3c(C(F)F)cc(-c4ccc(C)cc4)nc23)cc1 | i
Cn1c(SCC(=O)Nc2ccccc2C(F)(F)F)nnc1-c1ccco1 | 3%
Cc1ccc(-n2c(C)nnc2SCC(=O)Nc2ccc(Br)cc2F)cc1 | i
O=C(NC(=S)Nc1ccc(N2CCOCC2)c(Cl)c1)c1ccc(-c2ccccc2F)o1 | 8%
Cc1ccnc(NC(=O)Cc2ccc(F)cc2)c1 | 3%
O=C(O)Cn1nnc(-c2ccc(OCc3cccc(C(F)(F)F)c3)cc2)n1 | 11%
